GLA inh pH 4.5 = inhibitors of human alpha-galactosidase A at pH 4.5 | purified enzyme, 4-MU-alpha-Gal fluorescence, pH 4.5 | activity change, negative = inhibition, % at 105 µM | 230,000 tested, under 10 active; inconclusive = small, poorly fitted or top-dose-only inhibition, or a rising curve; inactive = flat fitted curve, though single readings scatter; no compound was filed as active;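 further: 0% = full activity with enzyme and -100% = basal without enzyme; dose as in the result columns while the protocol names 77 µM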
Target sequence (P06280 whole entry, looked up): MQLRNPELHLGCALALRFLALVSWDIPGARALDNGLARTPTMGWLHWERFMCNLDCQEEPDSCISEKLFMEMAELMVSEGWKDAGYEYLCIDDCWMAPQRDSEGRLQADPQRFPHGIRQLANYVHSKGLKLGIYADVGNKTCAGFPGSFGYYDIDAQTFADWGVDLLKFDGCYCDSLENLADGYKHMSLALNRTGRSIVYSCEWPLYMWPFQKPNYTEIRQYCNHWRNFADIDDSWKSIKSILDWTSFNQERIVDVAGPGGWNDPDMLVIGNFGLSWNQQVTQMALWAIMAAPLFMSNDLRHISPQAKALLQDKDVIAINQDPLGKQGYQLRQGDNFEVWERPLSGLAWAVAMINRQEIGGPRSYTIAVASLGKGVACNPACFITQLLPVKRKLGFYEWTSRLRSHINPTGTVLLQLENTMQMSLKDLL
Rango dissoc inh = inhibitors of RanGTP-induced Rango-importin beta complex dissociation. O95149+P62826. Biochemical FRET Rango-importin beta, RanGTP-induced dissociation. Potency, µM (top dose mostly 46.1 µM), for inactives: at the top dose activity change, negative = inhibition. 0.071% of 340,000 active; active means falling FRET ratio curve, often poorly fitted, with flat reads before Ran was added; inconclusive means other falling curves, or compound fluorescence or quenching; inactive means flat or rising ratio curve;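 further: potency means the concentration at half of the fitted maximal effect; % of control where 0% means no effect; nearly all actives have a fitted effect of over 45% in size; -100% = wells without RanGTP and RCC1; the record marks most hits as doubtful in a second field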
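Rango/importin beta premix (0.1/0.25 uM final), PBS + 1 mM DTT + 0.02% Tween-20 + 0.1% BSA; cpd 5 min RT; FRET pre-read; + RanGTP-RCC1 (0.6 uM Ran, 2 mM GTP, 0.2 uM RCC1); 45 min RT; FRET post-read, ex 430, em 486/530 nm.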
Rango-impB inh = inhibitors of Rango-importin beta complex formation | Q14974 | Rango CFP/YFP FRET sensor + importin beta, 45 min | Potency, µM (titrated, usually from 92.2 µM), inactives show at the top dose inhibition of complex formation | 0.031% of 340,000 active; active = rising FRET ratio curve, often small or poorly fitted; inconclusive = mostly compound fluorescence or quenching in the first reads; inactive = flat curves in all reads;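 further: potency means the concentration at half of the fitted maximal effect; 0% = DMSO wells and 100% = buffer wells lacking importin beta; nearly all actives have a fitted effect of over 15% in size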
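FRET biosensor (snurportin 1 IBB flanked by EYFP and cerulean), 50 nM, with compound 5 min, then 0.125 microM importin beta in PBS, 1 mM DTT, 0.02% Tween-20, 0.1% BSA. CFP/YFP ratio read after 45 min at room temperature; pre-read flags interference.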
miR-21 FLuc = raises the signal of a miR-21 reporter; HeLa miR-21 FLuc reporter, luciferase, 48 h; Potency, µM (series often up to 38.3 µM), for inactives: top-dose reporter change, positive = more light; 340,000 tested, under 10 active; AID 2288; active = well fitted rising curve with a large enough effect; inconclusive = small, poorly fitted or top-dose-only effect; inactive = no such curve, though single readings can be large or run the other way;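 further: % of control where 0% means no effect; miR-21 action dims this reporter so a rising signal means less miR-21 action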
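HeLa miR-21-FLuc reporter line, endogenous miR-21; 2000 cells/well in DMEM/10% FBS; compound titration up to ~40uM final, 48 h, 37 degree Celsius; luciferase detection reagent, 15 min lysis, CCD luminescence.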
An asterisk follows results filed as active; ? = inconclusive; . = no result given; & = joins results of further samples; [ ] = remark or other dose. This is a subset (hit frequency here may not be typical).

| SMILES | GLA inh pH 4.5 | Rango dissoc inh | Rango-impB inh | miR-21 FLuc |
| --- | --- | --- | --- | --- |
| CCOC(=O)C/C(C)=N\Nc1nc(-c2ccccc2)cs1 | -2 | 4% | 1.0% | -12% |
| Cc1cccc(Nc2c3c(nc4ccccc24)CCC3)c1 | -13 | 10% | -2.2% | ? |
| CCC(C)(C)n1nnnc1C(c1cc2cc(OC)c(OC)cc2[nH]c1=O)N1CCc2ccccc21 (stereo unspecified) | -18 | 5% | -5.6% | ? |
| Cc1ccc(S(=O)(=O)NC(=O)c2ccc(F)cc2)c(C)c1 | . | -11% | 9.2% | -3% |
| OCCC1CN(Cc2ccc(-n3cccn3)cc2)CCN1Cc1ccccc1 (stereo unspecified) | 0 | 3% | -0.4% | 2% |
| CN(C)c1ccc(C(=O)Nc2ccc(O)c3c(=O)cc(-c4ccccc4Cl)oc23)cc1 | 3 | -4% | -0.5% | -13% |
| CCOC(=O)Cn1c(=O)c2c(nc3n2CCCN3CCc2ccccc2)n(C)c1=O | . | 14% | 4.7% | 9% |
| CC(=O)Nc1ccc(NC(=O)c2ccccc2N(C)S(=O)(=O)c2ccccc2)cc1 | . | 1% | -2.4% | -3% |
| O=C(O)CC(NS(=O)(=O)c1c(F)cc(F)cc1Br)c1ccccc1Cl (stereo unspecified) | 9 | 10% | 2.9% | 3% |
| CC(=O)NC(=S)NNC(=O)c1ccc(Br)cc1 | -16 | -17% | -0.9% | 0% |
| COc1cccc(-c2cc(=O)c3cc(NC(=O)c4ccc(N(C)C)cc4)ccc3[nH]2)c1 | 0&6 | 19% | -5.4% | 14% |
| CCCSc1nnc(NC(=O)Nc2ccccc2)s1 | 3 | 10% | -0.4% | -49% |
| O=C(NC1C(=O)NNC1c1ccc(Cl)cc1)c1ccc(F)cc1 (stereo unspecified) | -22 | 5% | 2.9% | -8% |
| OCC1OC(n2cnc3c(/C=C(\O)c4ccccc4)ncnc32)C(O)C1O (stereo unspecified) | . | -6% | -4.7% | . |
| NC1C=CC=C(C(=O)O)C1 (stereo unspecified) | -3 | 2% | -4.9% | . |

Random excerpt: two compounds from above.
| SMILES | GLA inh pH 4.5 | Rango dissoc inh | Rango-impB inh | miR-21 FLuc |
| --- | --- | --- | --- | --- |
| CN(C)c1ccc(C(=O)Nc2ccc(O)c3c(=O)cc(-c4ccccc4Cl)oc23)cc1 | 3 | -4% | -0.5% | -13% |
| O=C(O)CC(NS(=O)(=O)c1c(F)cc(F)cc1Br)c1ccccc1Cl (stereo unspecified) | 9 | 10% | 2.9% | 3% |

Continuation:
| SMILES | GLA inh pH 4.5 | Rango dissoc inh | Rango-impB inh | miR-21 FLuc |
| --- | --- | --- | --- | --- |
| CC(C)CC(=O)N1CCC(O)(CS(=O)(=O)Cc2ccc(Cl)cc2)CC1 | 1 | 1% | 0.9% | 4% |
| COc1ccc(CN(C)c2nc(-c3cccnc3)nc3ccccc23)cc1OC | 5 | . | . | 0% |
| CN(C)c1ccc(C=c2c3ccccc3n3c2cc(-c2ccccc2)[n+]3C)cc1 | . | ? | ? | . |
| Cc1ccc(NC(=O)CN(C)CC(=O)Nc2ccccc2Oc2ccccc2)cc1 | -18 | -17% | 3.9% | -1% |
| O=C(NCc1cccs1)c1cc(-c2ccccc2)nn1CC1CC(c2cccnc2)=NO1 (stereo unspecified) | . | 2% | -1.6% | . |
| Cc1noc(C)c1C(=O)Nc1cccc2ncccc12 | . | 12% | 0.4% | 7% |
| CCc1c(C)[nH]n(-c2nc(-c3ccccc3)cs2)c1=O | 3[21.1 µM] | -6% | -2.2% | -18% |
| COc1ccc(OC)c(C(=O)COC(=O)CNC(=O)c2ccccc2)c1 | 5 | 20% | 1.6% | -9% |
| COc1ccc(NC(=O)c2ccco2)cc1NC(=O)c1ccc(Br)o1 | -10 | 10% | 5.3% | 6% |
| NC(=O)C1CCCN(S(=O)(=O)c2ccccc2)C1 (stereo unspecified) | -6 | -1% | -3.6% | 0% |
| CC1CCCN(C(=O)CCCC(=O)N2CCCC(C)C2)C1 (stereo unspecified) | . | 7% | -0.2% | -13% |
| COc1cnc(-c2ccccc2)nc1Oc1ccc(C(C)(C)C)cc1 | 0 | 30% | -1.8% | 0% |
| N#CCC(=O)N/N=C/c1ccc(Cl)cc1 | 0 | 18% | 1.4% | 5% |
| COc1cccc(OC)c1C(=O)NCCc1ccccc1 | . | 14% | 2.4% | . |
| Cn1c(=O)cc(N)n(-c2ccccc2)c1=O | . | 21% | 1.6% | 1% |
| Cc1ccc(N2C(=O)c3ccccc3NC2(C(=O)O)c2ccccc2)cc1Cl (stereo unspecified) | . | -11% | -0.5% | -65% |
| Cc1ccc(C(=O)Nc2ccc(S(=O)(=O)NC3=NCCCCC3)cc2)c(C)c1 | . | -10% | 0.9% | . |
| Cc1csc(N(C(=O)c2cccc(S(=O)(=O)N(C)C)c2)c2ccccc2)n1 | -7 | 1% | -0.1% | 5% |
| COc1ccc(C(=O)NC2CCCc3c2cnn3-c2cc(F)cc(F)c2)c(OC)n1 (stereo unspecified) | . | 2% | -0.4% | 2% |
| CCOC(=O)c1cc(C(C)(C)C)n(CCCN2CCOCC2)c1C | -7 | 5% | 0.9% | -4% |
| CCCCCCC(=O)Nc1nc(C)c(-c2csc(Nc3cccc(OC)c3)n2)s1 | 3 | -5% | 0.4% | 10% |
| O=C(c1cccc(Cl)c1)N1CCC(C(=O)N2CCN(Cc3ccccc3)CC2)CC1 | . | -11% | -0.6% | 10% |
| Cc1ccc(NC(=O)c2cnn(-c3ccccc3)c2C)cc1 | . | -7% | 0.3% | -1% |
| COc1ccccc1CNC(=O)c1cnc2ccccn2c1=O | 7 | 25% | 0.1% | -3% |
| CN1C(=O)/C(=C2\SC(=S)N(CCCCCC(=O)O)C2=O)c2ccccc21 | 6 | 14% | 6.0% | 1% |
| COc1ccc(CN2CCCC(C(=O)c3cccc(OC(C)C)c3)C2)cc1Cn1cccn1 (stereo unspecified) | -7 | -4% | 0.7% | 12% |
| COc1cc(C(=O)Nc2cccc(-c3cn4cccnc4n3)c2)cc(OC)c1OC | 26 | 2% | -0.3% | 7% |
| CSCC[C@H](NC(=O)c1cccc([N+](=O)[O-])c1C)c1nc2ccccc2[nH]1 | -8 | 8% | ? | 0% |
| COC(=O)C(C(=O)Nc1cccc(C)n1)C1CCCCCC1 (stereo unspecified) | 8 | 1% | -0.4% | -1% |
| CSCCC(NC(=O)C1CCC(C)CC1)C(=O)N1CCN(c2ccccn2)CC1 (stereo unspecified) | -11 | 4% | -2.8% | 3% |
| O=C(O)C1C2CCC(O2)C1C(=O)NCc1ccc(Cl)cc1 (stereo unspecified) | 3 | 1% | 1.0% | -14% |
| CCOC(=O)Cn1c(=O)c(-c2ccccc2NC)nc2ccccc21 | -6 | -8% | 1.6% | -1% |
| Cc1cccc(NC(=O)CCNC(=O)c2ccc(Br)cc2)c1 | . | 10% | 0.0% | -54% |
| CCCNC(=O)COc1ccc2c(=O)c(Oc3ccccc3F)coc2c1 | 6 | 0% | -1.8% | 11% |
| Cc1ccc(S(=O)(=O)c2cc3c(=O)n4ccccc4nc3n(CC3CCCO3)c2=N)cc1C (stereo unspecified) | -3 | ? | ? | -1% |
| CCC(CC)C(=O)Nc1cccc(C(=O)N2CCCCCC2)c1 | -2 | 3% | 6.6% | -1% |
| O=Cc1cc2ccccc2nc1SCCCF | -15 | 1% | 0.3% | 14% |
| Cc1cc2cc(C)c(SCC(=O)NCc3ccco3)nc2cc1C | -9 | 5% | -1.8% | 11% |
| COC(=O)c1ccccc1OCC(=O)NC1CCCCC1 | -9 | -1% | 1.0% | -25% |
| COC(=O)c1ccc(COc2c(F)c(F)cc(F)c2F)o1 | . | -4% | 0.3% | -5% |
| CCC1S/C(=N/C(=O)NC2CCCCC2)NC1=O (stereo unspecified) | 2 | 5% | -4.8% | -19% |
| COC(=O)c1ccc(NC(=O)CCS(=O)(=O)c2ccc3c(c2)NC(=O)C(C)S3)cc1 (stereo unspecified) | . | -8% | 0.0% | 9% |
| OCCCNc1ncnc2sc(-c3ccccc3)cc12 | 8 | 5% | 3.6% | -13% |
| O=C(Nc1ccccc1)OCC1COC(c2ccccc2)(c2ccccc2)O1 (stereo unspecified) | . | 4% | -5.3% | . |
| O=C(NC1CCCCC1)C(c1ccc(F)cc1)N(Cc1ccco1)C(=O)Cn1nnc2ccccc21 (stereo unspecified) | -3 | 3% | 2.8% | 0% |
| Cc1c(NC(=O)C(C)OC(=O)COc2ccccc2)c(=O)n(-c2ccccc2)n1C (stereo unspecified) | -8 | 0% | -1.5% | -3% |
| Nc1cccnc1Sc1ccc([N+](=O)[O-])cn1 | -3 | 2% | 3.7% | -13% |
| COc1cc(CN2CCCCC2)ccc1OCc1ccccc1 | . | 27% | 1.4% | -36% |
| NC(=O)c1nsc(C(=O)N(c2ccccc2)C(C(=O)NC2CCCC2)c2ccc3ncccc3c2)c1N (stereo unspecified) | . | -9% | -1.9% | 15% |
| Cc1csc2nc(NC(=O)c3ccccc3)sc(=O)c12 | -6 | 5.8µM* | ? | -22% |
| Cc1ccccc1N1C(=O)CC2(CCCC2)CC1=O | 7 | -13% | -1.6% | -1% |
| Cc1ccc(NC(=O)CCC(C(=O)O)N2C(=O)c3ccccc3C2=O)cc1 (stereo unspecified) | -3 | 5% | -3.9% | -3% |
| COc1cc2ccccc2cc1C(=O)Nc1ccc(NC(=O)c2cccs2)cc1 | . | 13% | 2.0% | -2% |
| CCn1cc(CNC(=O)c2ccc3nc(Cc4ccc(OC)cc4)oc3c2)cn1 | . | -7% | -1.3% | 13% |
| Cc1cc(=O)oc2cc(OCC(=O)OCC(=O)Nc3ccccc3C(C)C)ccc12 | -8 | 13% | -2.4% | -4% |
| Cc1ccccc1-n1c(SCc2ccccn2)nc2n[nH]c(C)c2c1=N | -10 | 10% | 0.5% | 9% |
| CCN(CC)S(=O)(=O)c1ccc(=O)n(CC(=O)N2Cc3ccccc3CC2C(N)=O)c1 (stereo unspecified) | . | 14% | -0.1% | . |
| COc1cccc(Oc2cncnc2-c2ccc(OC)cc2O)c1 | -1 | 5% | -4.6% | -15% |
| COc1ccc(/C=C(/NC(=O)c2ccccc2OC)C(=O)Nc2ccc(C(=O)O)cc2)cc1 | . | -8% | 1.1% | -11% |
| COc1ccc(C(=O)C(C)OC(=O)CNC(=O)C2CCCCC2)cc1 (stereo unspecified) | . | 39% | -0.1% | . |

More structures
| SMILES | GLA inh pH 4.5 | Rango dissoc inh | Rango-impB inh | miR-21 FLuc |
| --- | --- | --- | --- | --- |
| CCCCNC(=O)c1c(N)n(/N=C/c2ccccn2)c2nc3ccccc3nc12 | 6 | . | . | -7% |
| COc1cccc(CN(C)C(=O)c2cc(-c3ccc(F)cc3)nc3ccccc23)c1 | . | 8% | -1.0% | 14% |
| CON(C)c1nc(Oc2ccc(=O)[nH]n2)nc(N(C)C)n1 | -4 | 7% | -3.0% | -3% |
| COc1cc([C@@H]2CC=C(C(=O)O)[C@H](c3ccc(C)cc3)N2S(=O)(=O)c2ccc(C)cc2)cc(OC)c1OC | . | 22% | 0.4% | . |
| Cc1occc1-c1nnc(SCC(=O)Nc2nccs2)n1CCc1ccccc1 | 3 | -24% | -0.7% | 0% |
| COc1ccc(NC(=O)Cc2nnc(SCC(=O)NC3=NCCS3)n2C)cc1 | . | -4% | -3.3% | 7% |
| CN(CC(=O)NCCc1ccc(F)cc1)CC(=O)Nc1ccc(F)c(F)c1F | . | -3% | 2.9% | . |
| CCN(CC)S(=O)(=O)c1ccc(NS(=O)(=O)c2ccc3oc(=O)[nH]c3c2)cc1 | . | 22% | 1.8% | -1% |
| CC(=O)C1C(c2ccncc2)NC(=O)NC1(O)C(F)(F)F (stereo unspecified) | 5 | -10% | -1.5% | -1% |
| Cc1ccc(C)c(S(=O)(=O)N2CCN(C(=O)c3ccc(C)s3)CC2)c1 | . | 0% | -2.9% | 6% |
| Cc1ccc(NC(=O)c2sc3nc(N4CCOCC4)c4c(c3c2N)CC(C)(C)OC4)cc1 | . | -8% | 1.7% | -11% |
| CCOC(=O)COc1ccc(Oc2nc(C)cc(OC)n2)nn1 | -8 | -9% | 4.1% | 0% |

Screening data (PubChem)
